Biofilm kill mix: mixture kills Candida albicans biofilm cells; C. albicans biofilm persisters + clotrimazole, fluorescence viability; primary screen in compound mixtures of four per well; inhibition, % at 7.6 µM; 120,000 compounds, 0.02% hits; AID 1242;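 active = inhibition above 30.3% in the primary screen of four-compound pools, then above 30% when the compound was retested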;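 note: compounds exposed to preformed 24 h biofilms for 48 h; the number belongs to the whole pool; some results filed as inactive read as strong as hits; inactives centre near 12; 0% = biofilm with clotrimazole alone and 100% = kill control; retested singly at about 60 µM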
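System: C. albicans CAF4-2 wild-type biofilms; Medium: RPMI/MOPS medium, pH 7.0; Reagent: Clotrimazole, 50 µg/mL; Times: biofilm formation 24 h, compound exposure 48 h, 37 °C; Detection: 2-h Alamar Blue fluorescence, 535/590 nm excitation/emission; Evaluation: percent inhibition of biofilm viability.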
Numbers without * were called inactive.

SMILES | Biofilm kill mix
CCOc1ncccc1C(=O)Nc1cccc(-c2nc3cccnc3s2)c1 | 16
COc1ccc(N(Cc2cc3cccc(C)c3[nH]c2=O)C(=O)C2CCCO2)cc1 (configuration not stated) | 5
Cn1cccc1CC(=O)NNC(=O)Nc1ccc(F)cc1 | 19
CCC(C)(C)n1nnnc1C(c1ccccc1)N1CCN(Cc2ccccc2)CC1 (configuration not stated) | 21
Cc1ccc(Cn2c(=N)c(C#N)cc3c(=O)n4cccc(C)c4nc32)cc1 | 12
COc1cccc(CCNC(=O)CC2C(=O)NCCN2Cc2ccc(Cl)c(F)c2)c1 (configuration not stated) | 11
Cc1cc(NC(=O)CCN2C(=O)C3C4C=CC(C4)C3C2=O)ccc1Br (configuration not stated) | 15
Cc1ccc(N2CCN(/N=C/c3ccccc3)CC2)cc1 | 24
Cc1ccc(C)c(S(=O)(=O)Nc2ccc(C(=O)NCCc3ccccn3)cc2)c1 | 1
CC(=O)O/N=C/c1c(Cl)n(C)c2ccccc12 | 9
CC(C)(C)c1ccc(C(=O)NC(=S)NCc2cccnc2)cc1 | 8
CCCCNC(=O)O/N=C(\N)CS(=O)(=O)C(C)(C)C | 19
COC(=O)CSC1=C(C#N)C(c2ccsc2)CC(=O)N1 (configuration not stated) | 11
CC1CCCN(C(=S)NC2CCCC2)C1 (configuration not stated) | 0
CCn1c(C)nc2cc(C(=O)NNC(=S)Nc3ccc(Cl)cc3)ccc21 | 6

Some values from the results shown.
Value for CC(C)(C)c1ccc(C(=O)NC(=S)NCc2cccnc2)cc1 under Biofilm kill mix: 8
Value for COc1cccc(CCNC(=O)CC2C(=O)NCCN2Cc2ccc(Cl)c(F)c2)c1 (configuration not stated) under Biofilm kill mix: 11
Value for CC(=O)O/N=C/c1c(Cl)n(C)c2ccccc12 under Biofilm kill mix: 9
Value for CC1CCCN(C(=S)NC2CCCC2)C1 (configuration not stated) under Biofilm kill mix: 0

More records:
SMILES | Biofilm kill mix
O=C1CC(c2cc(F)ccc2F)c2cc3c(cc2N1)CCC3 (configuration not stated) | 24
CC(=O)Nc1ccc(NC(=O)Nc2ccccc2C)cc1 | 11
CCSc1cc(N2CCCC2)nc(-c2cccc(C)c2)n1 | 8
CC(=O)c1ccc(NC(=O)COC(=O)c2ccccc2N=Nc2ccc(N(C)C)cc2)cc1 | 24
Cc1ccc(S(=O)(=O)/C(C#N)=C/c2ccccc2OCc2ccccc2)cc1 | 4
O=C(C1=C(c2ccccc2)C(=O)c2ccccc2C1=O)c1ccccc1 | 16
COc1ccc(/C=C2\CC/C(=C\c3ccc(OC)c(OC)c3)C2=O)cc1OC | 9
O=CN/C=C/c1cc(O)ccc1O | 15
CSc1ccc(/C=C/C(=O)N2CCCN(C)CC2)cc1 | 17
COc1ccc(CN2CCCC(CNC(=O)c3ccc(F)cc3)C2)c(C)c1C (configuration not stated) | 20
CCNC(=O)COC(=O)Cc1ccc(Cl)cc1Cl | 5
CS(=O)(=O)Nc1nc2n(n1)C(c1ccccc1)CC(c1ccccc1)N2 (configuration not stated) | 24
Cc1nn(C(=O)c2c(-c3ccccc3)noc2C)c(C)c1N=Nc1cc(C(F)(F)F)cc(C(F)(F)F)c1 | 6
COc1cc(OC)cc(C(=O)OCC(=O)NCc2ccc3c(c2)OCO3)c1 | 12
COc1cccc(NC(=O)CSC(N)=O)c1 | 13
CCOCCn1c(SCC(=O)OCc2ccccc2)nc2c1c(=O)[nH]c(=O)n2C | 3
COc1ccc(N(CC(=O)NCCC2=CCCCC2)S(=O)(=O)c2ccccc2)c(OC)c1 | 2
O=C(NC1CCC(c2ccccc2)CC1)c1cccnc1 (configuration not stated) | 10
Cc1cccc(NC(=O)CN2C(=O)N/C(=C/c3ccc(C)o3)C2=O)c1 | 8
CCN(CC)CC(=O)Nc1ccc(C)cc1C(=O)c1ccccc1 | 12
c1ccc(NC2=NCCCCS2)cc1 | 8
COC(=O)NCC(c1ccco1)N1CCN(c2ccc(F)cc2)CC1 (configuration not stated) | -1
CN1CCN(CCCC(=O)c2ccc(C3CCCC3)cc2)CC1 | 21
CC(C)CC(=O)N1CC(C)N(C(=O)CC(C)C)CC1C (configuration not stated) | 8
O=C(Nc1cc(N2CCOCC2)ncn1)c1ccc(F)cc1 | 13
CCOc1c(/C=C(\C#N)C(N)=O)c2ccccc2n1CC | 8
Cc1cc(N/N=C/c2ccncc2)c([N+](=O)[O-])cc1[N+](=O)[O-] | 29
Fc1ccc(-c2csc(N3CCOCC3)n2)cc1 | 0
CCc1ccc(NC(=S)NCc2ccccc2)cc1 | 15
CC(=O)c1csc(COc2ccc(Cl)cc2)n1 | 15
O=c1c2ccccc2ncn1CCOc1ccccc1[N+](=O)[O-] | 6
CCc1ccc(OCCOCC(O)CNC(C)CC)cc1 (configuration not stated) | 29
Cn1ccnc1Sc1ccc(C(N)=O)cc1[N+](=O)[O-] | 18
CCN(CC)S(=O)(=O)c1ccc(Cl)c(NC(=O)CSc2cccc[n+]2[O-])c1 | 15
Cc1cc(C(=O)NNC(=O)c2ccc(S(=O)(=O)N(C)C)cc2)c(C)o1 | 12
Cc1cccc(NC(=O)CCNC(=O)c2ccco2)c1C | 14
CCO/C(C)=C1/SC(=S)NC1=O | 9
Cc1ccc(Nc2c([N+](=O)[O-])c(=O)n(C)c3ccccc23)cc1 | 19
C[N+](C)(C)CCOc1ccc([N+](=O)[O-])cc1 | 18
Cc1cc(C)n2nc(CCCO)nc2n1 | 15
Cc1cc2nc3n(c2cc1C)CC1CC(C(=O)NCc2ccco2)N(C)C31 (configuration not stated) | 16
NC(=O)c1c(NC(=O)c2cccnc2)sc2c1CCCC2 | 12
Cc1cc(C)c(-n2nnnc2SCC(=O)c2cc3ccccc3o2)c(C)c1 | 9
COc1cccc(NC(=O)COc2c(F)c(F)c(C(F)(F)F)c(F)c2F)c1 | 11
CCN(CC)S(=O)(=O)c1ccc(N2CCOCC2)c(NC(=O)c2ccc(OC)c([N+](=O)[O-])c2)c1 | 12
CCOc1cccc(OCCCCn2cnc3ccccc3c2=O)c1 | 14
Cc1ccc(S(=O)(=O)N2CCOC2C(Cl)(Cl)Cl)cc1 (configuration not stated) | 14
CCOC(=O)COc1nc2c(c(-c3ccco3)c1C#N)CCc1ccccc1-2 | 2
Clc1ccc(-c2n[nH]c3c2CCCC3)cc1 | 15
O=c1cc(C(F)(F)F)[nH]c2c(C(F)(F)F)cccc12 | 29
Cc1nc(-c2ccc3c(c2)OCCCO3)cs1 | 19
CCc1c(C(=O)NNC(=S)NC2CCCCC2)csc1C | -10
CC1CCN(C(=O)Cn2cc(C(=O)C3CC3)c3ccccc32)CC1 | 10
O=C(COC(=O)c1n[nH]c(=O)c2ccccc12)c1ccc(Br)cc1 | 2
Fc1ccccc1NC(=S)Nc1cccnc1 | 6
CC(=O)c1ccc(NC(=O)COC(=O)CCC(=O)c2cccs2)cc1 | 10
COCCCNC(=O)c1ccc(Cn2c(=O)c3ccccc3n(CC(=O)NCCc3ccc(OC)c(OC)c3)c2=O)cc1 | 16
Cc1c(Cl)cccc1NC(=S)N1CCN(c2ccc([N+](=O)[O-])cn2)CC1 | 8
Cc1ccc(/C=N/OC(=O)c2nn(C)cc2Cl)cc1 | 20
COc1ccccc1NC(=O)C1=C(C)NC2=C(C(=O)CC(c3ccc(OC)c(OC)c3)C2)C1c1coc2ccccc2c1=O (configuration not stated) | -5

An excerpt from above in order of count of non-hydrogen atoms, high to low:
SMILES | Biofilm kill mix
COc1ccccc1NC(=O)C1=C(C)NC2=C(C(=O)CC(c3ccc(OC)c(OC)c3)C2)C1c1coc2ccccc2c1=O (configuration not stated) | -5
COCCCNC(=O)c1ccc(Cn2c(=O)c3ccccc3n(CC(=O)NCCc3ccc(OC)c(OC)c3)c2=O)cc1 | 16
CCOC(=O)COc1nc2c(c(-c3ccco3)c1C#N)CCc1ccccc1-2 | 2
CCOc1cccc(OCCCCn2cnc3ccccc3c2=O)c1 | 14
O=C(COC(=O)c1n[nH]c(=O)c2ccccc12)c1ccc(Br)cc1 | 2
Clc1ccc(-c2n[nH]c3c2CCCC3)cc1 | 15

Continuation:
SMILES | Biofilm kill mix
O=C(CCC1CCCCC1)NNC(=O)c1cnccn1 | 3
COc1ccc(CN(CCO)CCO)cc1[N+](=O)[O-] | 11
CCN(CC(=O)NCCc1ccc(F)cc1)Cc1nc2ccccc2c(=O)[nH]1 | 10
CC1(C)CC(=O)C(CC(=O)NC(=O)NCc2ccccc2)=C(O)C1 | 8
Cc1ccccc1NC(=O)c1oc(=O)c2ccccc2c1-c1ccccc1 | 11
Cc1ccc(Nc2cc(C)nc3nc(C)nn23)c(C)c1 | 8
C/C(N)=C(/C#N)C(=O)CSc1nc2ccccc2c(=O)n1Cc1ccc(F)cc1 | 19
NNc1ccc2c(C(F)(F)F)cc(C(F)(F)F)nc2n1 | 2
O=C(COC(=O)c1ccccc1)NCc1cccs1 | 11
CSCCC(NC(=O)c1ccccc1)C(=O)OCC(=O)c1ccc[nH]1 (configuration not stated) | 9
CCOc1ccc(NC(=O)CSc2nnc(C3CC3)n2C)cc1 | 15
Cc1cccc(N2C(=O)CC(N3CCN(c4ccccn4)CC3)C2=O)c1 (configuration not stated) | 18
O=C(O)/C=C/C(=O)NCc1csc2ccccc12 | 7
CN1CCN(C2=C(NS(=O)(=O)c3cccs3)C(=O)c3ccccc3C2=O)CC1 | 22
COc1ccc(/C=N/NC(=O)c2ccccc2O)cc1COc1ccccn1 | 18

Looked up one by one from the list above, 7 records:
SMILES | Biofilm kill mix
NNc1ccc2c(C(F)(F)F)cc(C(F)(F)F)nc2n1 | 2
C/C(N)=C(/C#N)C(=O)CSc1nc2ccccc2c(=O)n1Cc1ccc(F)cc1 | 19
Cc1ccc(Nc2cc(C)nc3nc(C)nn23)c(C)c1 | 8
CSCCC(NC(=O)c1ccccc1)C(=O)OCC(=O)c1ccc[nH]1 (configuration not stated) | 9
Cc1cccc(N2C(=O)CC(N3CCN(c4ccccn4)CC3)C2=O)c1 (configuration not stated) | 18
CN1CCN(C2=C(NS(=O)(=O)c3cccs3)C(=O)c3ccccc3C2=O)CC1 | 22
COc1ccc(CN(CCO)CCO)cc1[N+](=O)[O-] | 11

Further compounds follow:
SMILES | Biofilm kill mix
COCC(C)n1c(C)cc(C(=O)COc2ccc(C)nc2[N+](=O)[O-])c1C (configuration not stated) | 0
CN(C)c1ccccc1C(=O)N1CCCC(C(=O)c2ccc3ccccc3c2)C1 (configuration not stated) | 4
COc1ccc(-n2nc(C(=O)c3cccs3)cc(-c3nc4ccccc4[nH]3)c2=N)cc1 | 9
O=C1COc2ccc(C(=O)COC(=O)c3cc(S(=O)(=O)NCc4ccccc4)ccc3O)cc2N1 | 20
O=C(c1cncs1)N1CCCC(CNS(=O)(=O)c2cccs2)C1 (configuration not stated) | 24
COc1cc(C(=O)NNC(=O)Nc2ccc([N+](=O)[O-])cc2)cc(OC)c1OC | 10
O=c1cc(CN2CCc3ccccc3C2)nc2sccn12 | 9
CC(=O)[C@@]1(O)CC[C@H]2[C@@H]3C[C@H](C)C4=CC(=O)C=C[C@]4(C)[C@@]3(F)[C@@H](O)C[C@@]21C | 0
CCCCCOc1ccc(N2C(=O)C(C)CNC2=S)cc1 (configuration not stated) | 22
CC(C)(C)NC(=O)NC(=O)COC(=O)Cc1ccc(Cl)cc1Cl | 9
O=C(Nc1cccc2c1CCCC2)c1ccncc1 | 14
O=C(NC(CCl)c1ccccc1)c1ccc(Cl)cc1 (configuration not stated) | 16
COc1cccc(-n2c(CN3CCN(c4ccccn4)CC3)nc3ccc([N+](=O)[O-])cc3c2=O)c1 | 10
Cc1ccc(-c2n[nH]c(S(C)(=O)=O)c2C#N)cc1 | 8
COc1ccc([N+](=O)[O-])cc1N(CC(O)CN(C)C)S(=O)(=O)c1ccccc1 (configuration not stated) | 2

The list goes on, starting with the last 3 of the part before.
SMILES | Biofilm kill mix
COc1cccc(-n2c(CN3CCN(c4ccccn4)CC3)nc3ccc([N+](=O)[O-])cc3c2=O)c1 | 10
Cc1ccc(-c2n[nH]c(S(C)(=O)=O)c2C#N)cc1 | 8
COc1ccc([N+](=O)[O-])cc1N(CC(O)CN(C)C)S(=O)(=O)c1ccccc1 (configuration not stated) | 2
Cn1cnc(S(=O)(=O)Nc2ccccc2C(=O)NCC2CC2)c1 | 26
CCS(=O)(=O)N1CCC(C(=O)NCc2ccc(OC)cc2)CC1 | 14
CCOCCCNC(=O)C(NC(=O)Cc1cccs1)c1ccc(OC)cc1 (configuration not stated) | 8
CC(=O)c1c(C)oc2ccc(N(C(=O)c3ccncc3)S(=O)(=O)c3ccccc3)cc12 | 16
C=CCNC(=O)C(=O)N/N=C/c1ccco1 | 21
O=C1c2ccc3c4c(ccc(c24)C(=O)N1c1ccc(O)cc1)C(=O)N(c1ccc(O)cc1)C3=O | 0
O=C(CN1CCN(C(=O)c2ccco2)CC1)Nc1cccc([N+](=O)[O-])c1 | 15
O=C(Nc1cccc(C(F)(F)F)c1)OCCN1CCN(Cc2ccccc2)CCC1=O | 15
CCC1(c2ccccc2)NC(=O)N(Cc2ccc(C(=O)OC)cc2)C1=O (configuration not stated) | 15
CCOc1ccc(NC(=O)C2C3CC/C=C\CCC32)cc1 (configuration not stated) | 16
C/C(=N\NC(=O)CNC(=O)C(c1ccccc1)c1ccccc1)c1ccccc1 | 19
CC(=O)Nc1ccc(S(=O)(=O)N(C)c2ccc(OCC(=O)OCC(=O)Nc3ccc(OC(F)F)cc3)cc2)cc1 | 17
CCCCCC(=O)NC(Cc1ccc(OC)c([N+](=O)[O-])c1)C(=O)O (configuration not stated) | -3
COC(=O)C1CC(c2ccc(Cl)cc2)=NO1 (configuration not stated) | 9
CCN(CC)C(=O)CSC1=N/C(=C/c2ccco2)C(=O)N1c1ccc(OC)c(Cl)c1 | 19
O=C(NCCCN1CCN(c2ccccc2F)CC1)Nc1ccccc1[N+](=O)[O-] | 18
COc1ccc(/C=C(/NC(=O)/C=C/c2ccccc2)C(=O)NCCCCCC(=O)O)cc1 | 21
O=C(NC1CCS(=O)(=O)C1)/C(=C\c1ccc(F)cc1)NC(=O)c1ccccc1 (configuration not stated) | 10

This is a subset; count on the stated rates, not on these rows.
